PABP FP inh – PABP-poly(A) binding inhibition; P11940; PABP-poly(A) RNA binding, fluorescence polarization; inhibition, % at 35 µM; 290,000 compounds, 1% hits;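 active = 50% or more with normal probe brightness, or confirmed in later tests; inconclusive = above 50% with abnormal brightness, or retests that disagree; inactive = below 50% or failed in later tests; about a fifth of its hits are not listed in these tables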;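 note: calls also rest on retests at 20 µM and on dose response follow-up; controls were probe without protein and protein plus probe with vehicle; some compounds called inactive have numbers as strong as hits; many hits fall short of the cut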
Target sequence (P11940 whole entry, looked up): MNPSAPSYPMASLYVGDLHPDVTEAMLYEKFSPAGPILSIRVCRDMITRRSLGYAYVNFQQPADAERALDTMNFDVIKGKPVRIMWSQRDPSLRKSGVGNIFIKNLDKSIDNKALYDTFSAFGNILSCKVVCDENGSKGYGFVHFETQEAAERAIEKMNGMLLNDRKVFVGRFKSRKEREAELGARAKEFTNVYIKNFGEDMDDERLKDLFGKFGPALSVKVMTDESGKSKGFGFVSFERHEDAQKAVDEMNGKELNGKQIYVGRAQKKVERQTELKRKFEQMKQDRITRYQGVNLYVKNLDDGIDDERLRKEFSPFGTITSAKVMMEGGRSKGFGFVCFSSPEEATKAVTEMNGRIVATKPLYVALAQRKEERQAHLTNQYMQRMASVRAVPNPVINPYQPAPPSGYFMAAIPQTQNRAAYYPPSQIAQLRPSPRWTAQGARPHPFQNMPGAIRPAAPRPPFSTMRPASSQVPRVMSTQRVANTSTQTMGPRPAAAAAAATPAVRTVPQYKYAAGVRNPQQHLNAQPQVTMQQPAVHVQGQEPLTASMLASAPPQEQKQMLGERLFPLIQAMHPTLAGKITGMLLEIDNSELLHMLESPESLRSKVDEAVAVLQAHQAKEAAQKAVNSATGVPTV
HIV Env fusion – blocks HIV Env-driven cell-cell fusion; HeLa-JRFL Env/CEM21 cell fusion, luciferase; inhibition, % at 12.3 µM; 360,000 compounds, 1.1% hits; AID 651610;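 active = mean replicate inhibition score of at least 50 and every replicate individually at or above 50; inconclusive = only one of the two criteria met; inactive = mean below 50 and not all replicates reaching 50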;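 note: 0% = plate neutral controls and 100% = maraviroc near 300 nM; one replicate is shown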
MT1-MMP act inh – blocks activation of human MT1-MMP | P50281 | HT1080 RFP-PRO-GFP cells, GFP/RFP ratio fluorescence, overnight; percent of plate control window, DMSO zero | GFP/RFP ratio change, % at 20 µM | 360,000 compounds, 0.061% hits;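 active = GFP/RFP ratio change of at least 30% with cell ATP level not reduced by more than half and red fluorescence within 50% of control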; note: strong numbers were not always called active
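Assay system – RFP-PRO-GFP reporter HT1080 cells · Compound dosing – single dose of 20 µM compound, 1% DMSO final · Incubation – overnight compound exposure at 37 °C · Measure – GFP/RFP fluorescence ratio · Benchmarks – DMSO wells and RFP-L50D-GFP cells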
CSC inhib – blocks cancer stem cells. 300,000 compounds, 1.1% hits. AID 2717. cancer stem cell-like cells viability, luminescence. inhibition, % at 7.5 µM;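 active = mean at 75% or more and at least half the replicates too; inconclusive = mean and replicates disagree; tested in HMLE shEcad cells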;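 note: 0% = median of negative and 100% = median of positive control wells; the first replicate is given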
eIF4H FP inh – inhibitors of RNA binding by human eIF4H | 290,000 compounds, 0.94% hits | AID 2012 | Q15056 | eIF4H fluorescence polarization binding assay | inhibition, % at 35 µM;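 active = 50% or more with normal probe brightness, or confirmed in later tests; inconclusive = above 50% with abnormal brightness, or retests that disagree; inactive = below 50% or failed in later tests; about a fifth of its hits are not listed in these tables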;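 note: calls also rest on retests at 20 µM and on dose response follow-up; 0% = protein and probe with vehicle and 100% = probe without protein; strong numbers were not always called active; many hits fall short of the cut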
Yeast UUG start – modulators of start codon recognition fidelity in yeast. S. cerevisiae UUG-firefly luciferase reporter, luminescence/redox ratio. activity score, % at 18.7 µM. 350,000 compounds, 0.13% hits;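 active = replicate mean at a twofold rise or more, about +100% in these data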;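 note: firefly luciferase made from a UUG start codon reports start codon fidelity; reporter light over untreated wells divided by growth signal over untreated wells; some hits fall short of that in this replicate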
Rce1 inhib – yeast Ras-converting enzyme inhibition | Q03530 | yeast membranes, quenched prenylated peptide cleavage fluorescence | calls only | 290,000 compounds, 0.27% hits | AID 2563;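 active = fall in fluorescence gain of 50% or more versus controls, with final raw signal at or below 3038400; inconclusive = same 50% fall but final raw signal above 3038400; inactive = fall in fluorescence gain under 50%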;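 note: plate controls were neutral control wells for no effect and wells lacking membranes for full effect; tested at 10 µM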
MT1-MMP act inh RFP – further read-out of MT1-MMP act inh, marked with its call; RFP signal change, %; measured here: RFP expression control read;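 0 = vehicle wells; hits needed this value within 50% of zero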
Numbers without * were called inactive; i = inactive; ? = inconclusive; . = no result given; & = joins results of further samples; [ ] = another dose, or the depositor's remark. Not all compounds are listed; rates above refer to the full screens.

| Molecule | PABP FP inh | HIV Env fusion | MT1-MMP act inh | MT1-MMP act inh RFP | CSC inhib | eIF4H FP inh | Yeast UUG start | Rce1 inhib |
| --- | --- | --- | --- | --- | --- | --- | --- | --- |
| CC(=O)c1cccc(NC(=O)COC(=O)CCC(=O)c2cccs2)c1 | . | 12 | 6 | 2 | . | . | -6 | . |
| O=C(/C=C/c1cccc(Cl)c1)OCC(=O)c1ccc[nH]1 | . | -8 | 1 | 5 | . | . | 4 | . |
| Cc1ccc(OCC(=O)OC2CCCN(C)C2)cc1 (stereo not given) | 16 | -7 | 0 | -2 | -11 | 8 | . | i |
| Cc1nnc(SCCn2c(N3CCCCCC3)nc3c2c(=O)[nH]c(=O)n3C)s1 | -4 | 6 | -3 | 0 | . | -13 | -4 | i |
| CC(=O)c1ccccc1OCc1ccc(C(=O)c2ccccc2)cc1 | 1 | ? | -6 | -26 | 18 | -4 | -9 | i |
| CCCCN(C(=O)c1ccc2c(c1)NC(=O)CS2)c1ccccc1 | . | 1 | -3 | -8 | 3 | . | -20 | . |
| COc1ccc(CN2C(=O)c3ccccc3C2=O)cc1C(=O)O | -5 | -2 | 0 | 1 | -9 | -9 | -9 | i |
| CC(C)(C)C(=O)c1cn(CC(=O)NCc2ccc3c(c2)OCO3)c2ccccc12 | -8 | -67 | -5 | -3 | 14 | -4 | -3 | i |
| CC(C)(Oc1ccc(Cl)cc1)C(=O)OCc1nc2ccsc2c(=O)[nH]1 | . | 7 | 1 | 2 | -7 | . | 8 | i |
| CCN(c1ccccc1)S(=O)(=O)c1ccc(NC(=O)C(C)(C)C)cc1 | 1 | -57 | 1 | -2 | . | 7 | 12 | i |
| Cc1noc(C)c1C(=O)Nc1nc(-c2cc(F)ccc2F)cs1 | . | -12 | 7 | -7 | . | . | -36 | . |
| CCOC(=O)C1CSC(CC(=O)Nc2ccc(OC(F)(F)F)cc2)C(=O)N1 (stereo not given) | 2 | 10 | 2 | 1 | -5 | -4 | . | i |
| CCOC(=O)CC(NC(=O)CCc1c(C)nc2ncnn2c1C)c1ccc(OC(C)C)cc1 (stereo not given) | 1 | 10 | 0 | 2 | -3 | 4 | . | i |
| O=C(NCc1ccccc1)C1=C[C@@H](C2CCCCC2)C[C@@H](OCc2ccc(CO)cc2)O1 | -4 | 8[16.7 µM] | . | . | 41 | -8 | -8&-10 | i |
| Cc1c(NS(=O)(=O)c2cccs2)cccc1-c1nc2cccnc2s1 | 2 | 7 | -1 | -14 | -5 | -3 | . | i |
| O=C(COC(=O)c1ccccc1Oc1ccccc1)NC1CC1 | 8 | 3 | 0 | 1 | -5 | -10 | -15 | i |
| COc1ccccc1NS(=O)(=O)c1ccc(C)c(NC(=O)NC2CCCCC2)c1 | 9 | 5 | 5 | -1 | 5 | -12 | . | i |
| Cc1ccc(-c2nc3ncccc3o2)cc1NC(=O)c1cc2ccccc2o1 | 2 | . | 0 | 2 | 7 | -7 | -5 | i |
| O=Cc1ccc(OC2OCCOC2Oc2ccc(C=O)cc2)cc1 (stereo not given) | 11 | -7 | -4 | 1 | -13 | -10 | . | i |
| COc1cccc(Nc2nc(-c3sc(N)nc3C)cs2)c1 | 27 | . | -10 | 8 | 26 | 12 | . | i |
| COc1ccc(Cc2nnc(N/N=C/c3ccc(Br)cc3)[nH]c2=O)cc1OC | 2 | 5 | -1 | -4 | 4 | -6 | -5 | i |
| Cc1cc(Cl)c(S(=O)(=O)Nc2ccc(S(=O)(=O)N3CCOCC3)cc2)cc1OCC(N)=O | -1 | -11 | -1 | 1 | -8 | -3 | . | i |
| COc1ccc(/C=C2\COc3ccccc3C2=O)c(OC)c1 | 4 | 6 | -5 | -6 | 60 | 5 | -10 | i |
| O=C(Nc1ccc(Br)cc1)N1CCCCCC1 | 6 | -43 | 3 | 5 | -3 | -2 | -12 | i |
| COc1ccccc1Nc1ncc(C(C)=O)c(C)n1 | -2 | . | 4 | 5 | 6 | 2 | -11 | i |
| CN(CCc1ccccn1)C(=O)c1ccc(OC(F)(F)F)cc1 | 33 | 2 | -8 | 0 | 0 | 7 | . | i |
| NC(=O)c1nsc(C(=O)N(c2cccc(F)c2)C(C(=O)NCc2ccccc2)c2ccc(O)cc2)c1N (stereo not given) | -6 | -2 | -2 | -2 | -6 | -15 | -20 | i |
| CCN1CCN(CCCNC(=O)c2ccc(NC(=O)C3=C(C)OCCS3)cc2)CC1 | 2 | -5 | -3 | 0 | -4 | 9 | -11 | i |
| O=C(Nc1cccnc1)C1=NN(C2CCS(=O)(=O)C2)C(=O)CC1 (stereo not given) | -9 | -17 | 0 | 4 | -3 | -2 | . | i |
| CCOC(=O)c1sc2nc[nH]c(=O)c2c1C | -2 | . | 5 | 3 | -7 | -5 | -17 | i |
| Cc1cccc(N=C2C(=O)Nc3c(Cl)cccc32)c1 | 3 | -24 | -4 | 11 | -3 | -3 | -1 | i |
| O=C(NCc1ccco1)C1Cc2cc(Cl)ccc2O1 (stereo not given) | 4 | -8 | 3 | 2 | 0 | 4 | -13 | i |
| CNC(=O)COC(=O)c1ccccc1Nc1ccccc1 | 4 | 5 | -4 | 0 | . | 3 | -11 | i |
| COc1cccc(Cn2c(=O)sc3ccccc3c2=O)c1 | -12 | -9 | 1 | -2 | -3 | 4 | . | i |
| CN(CCO)c1ccc(C=NNc2ccc([N+](=O)[O-])cc2S(=O)(=O)Nc2ccccc2C(=O)O)cc1 | . | -10 | 14 | -1 | 20 | . | 5 | . |
| Cc1ccc(CN2C(=O)CCC2C(=O)NCCN2CCN(c3cccc(Cl)c3)CC2)cc1 (stereo not given) | -15 | 23 | -1 | -8 | -6 | -9 | 4 | i |
| O=C(CSc1ncnc2c1nnn2Cc1ccccc1)NC1CCCC1 | -1 | 2 | 1 | 0 | 5 | -8 | . | i |
| CC1CCN(Cc2nnnn2CCCC(=O)NCCc2cnn(C)c2)CC1 | 2 | -3 | -4 | 2 | 7 | -6 | 6 | i |
| N#C/C(=C/c1ccc(Oc2ccc([N+](=O)[O-])cn2)cc1)C(=O)N1CCOCC1 | -3 | -6 | 3 | 2 | 0 | 3 | -9 | i |
| Oc1ccc(Br)cc1/C=N/n1c(C2CCCCC2)n[nH]c1=S | 1 | -5 | 0 | -1 | 13 | 2 | 8 | i |
| Cc1ccc(C(=O)CCNc2cccc(Br)c2)o1 | 6 | . | 3 | 0 | 21 | -6 | . | i |
| CCN1CCN(C(=O)c2ccc3c(c2)N(Cc2ccc(F)cc2)C(=O)c2ccccc2S3=O)CC1 (stereo not given) | -8 | -1 | 0 | 4 | . | 2 | -9 | i |
| CN(N)C(=S)NCc1ccccc1 | 9 | -33 | 1 | 1 | -15 | -5 | -10 | i |
| Cc1oc2c(CN(C)C)c(O)ccc2c(=O)c1-c1cscn1 | 9 | . | 6 | 0 | -28 | -4 | -10 | i |
| COc1ccc(C(=O)O)cc1S(=O)(=O)N1CCN(Cc2ccc3c(c2)OCO3)CC1 | . | 8 | 2 | 1 | -8 | . | -3 | . |
| O=C(c1ccccc1)N1CCCCC(S(=O)(=O)c2ccc3ccccc3c2)C1=O (stereo not given) | 2 | -83 | 5 | 0 | -14 | -8 | -1 | i |
| CCCC1=C(C(=O)OCC)C(c2ccco2)n2ncnc2N1 (stereo not given) | 0 | -10 | 2 | -2 | -8 | -3 | . | i |
| COc1ccc(-c2[nH]ncc2CN2CCC(OCc3ccccn3)CC2)c(F)c1 | 5 | 1 | -1 | 3 | -27 | -7 | -16 | i |
| CCOc1ccccc1CN1CCN(Cc2nc3ccccc3s2)CC1CCO (stereo not given) | -4 | 5 | 0 | -1 | 1 | -3 | -6 | i |
| O=C1NC(=O)/C(=C/c2ccc(O)cc2)S1 | 3 | -28 | -1 | -4 | -4 | -4 | . | i |

The list goes on.
| Molecule | PABP FP inh | HIV Env fusion | MT1-MMP act inh | MT1-MMP act inh RFP | CSC inhib | eIF4H FP inh | Yeast UUG start | Rce1 inhib |
| --- | --- | --- | --- | --- | --- | --- | --- | --- |
| CCCCOCCCNCc1cccn1CCN1CCOCC1 | 8 | -52 | 4 | 2 | -11 | 12 | -3 | i |
| O=c1cc(CSc2nnc(C3CC3)n2Cc2ccccc2)nc2sccn12 | -4 | 2 | -3 | 1 | -1 | 40 | . | i |
| CCOC(=O)c1ccc(CNS(=O)(=O)c2c(C)ccc3nsnc23)o1 | -6 | . | 2 | 1 | -1 | -1 | -5 | i |
| Cc1ccccc1NC(=O)COc1nsnc1N1CCOCC1 | -5 | -32 | 2 | 2 | 5 | -7 | -12 | i |
| O=C(Nc1cccn2nc(COCCO)nc12)C(c1ccccc1)c1ccccc1 | . | 9 | 0 | -1 | . | . | -14 | . |
| Cc1cc(C)c2c(C(C)(C)C)nn(-c3ccccc3)c2n1 | 5 | 2 | 0 | 2 | 5 | 0 | -11 | i |
| CCN(CC)c1ccc(C2C3CCCCC3(O)CCN2C(=O)c2cccs2)cc1 (stereo not given) | -8 | . | -8 | -6 | -2 | -6 | . | i |
| COc1ccc(C)cc1NC(=O)C1C2C=CC(C2)C1C(=O)O (stereo not given) | 4 | -59 | -1 | 8 | -3 | -2 | -14 | i |
| CCC(C(=O)N1CCOCC1)n1nc(C)c2sc3ccccc3c2c1=O (stereo not given) | 0 | 2 | -1 | 1 | -4 | -10 | -18 | i |
| O=C(NC(=S)Nc1ccccc1Cl)c1cncc(C#Cc2ccccc2)c1 | 4 | -6 | 0 | 3 | -3 | -3 | -19 | i |

In the list so far, 7 contain an NH in an aromatic ring.
| Molecule | PABP FP inh | HIV Env fusion | MT1-MMP act inh | MT1-MMP act inh RFP | CSC inhib | eIF4H FP inh | Yeast UUG start | Rce1 inhib |
| --- | --- | --- | --- | --- | --- | --- | --- | --- |
| O=C(/C=C/c1cccc(Cl)c1)OCC(=O)c1ccc[nH]1 | . | -8 | 1 | 5 | . | . | 4 | . |
| Cc1nnc(SCCn2c(N3CCCCCC3)nc3c2c(=O)[nH]c(=O)n3C)s1 | -4 | 6 | -3 | 0 | . | -13 | -4 | i |
| CC(C)(Oc1ccc(Cl)cc1)C(=O)OCc1nc2ccsc2c(=O)[nH]1 | . | 7 | 1 | 2 | -7 | . | 8 | i |
| COc1ccc(Cc2nnc(N/N=C/c3ccc(Br)cc3)[nH]c2=O)cc1OC | 2 | 5 | -1 | -4 | 4 | -6 | -5 | i |
| CCOC(=O)c1sc2nc[nH]c(=O)c2c1C | -2 | . | 5 | 3 | -7 | -5 | -17 | i |
| Oc1ccc(Br)cc1/C=N/n1c(C2CCCCC2)n[nH]c1=S | 1 | -5 | 0 | -1 | 13 | 2 | 8 | i |
| COc1ccc(-c2[nH]ncc2CN2CCC(OCc3ccccn3)CC2)c(F)c1 | 5 | 1 | -1 | 3 | -27 | -7 | -16 | i |

Following part.
| Molecule | PABP FP inh | HIV Env fusion | MT1-MMP act inh | MT1-MMP act inh RFP | CSC inhib | eIF4H FP inh | Yeast UUG start | Rce1 inhib |
| --- | --- | --- | --- | --- | --- | --- | --- | --- |
| COc1ccc(CN(CCN2CCOCC2)C(=O)c2c(F)cccc2F)cc1OC | 27 | . | 6 | 1 | 0 | 3 | -13 | i |
| c1ccc(OCCN2CCOCC2)cc1 | 5 | -33 | -1 | 2 | . | 0 | -23 | i |
| Cc1cc(C)c(NC(=O)Cn2nnc(C(=O)NCCc3ccccc3)c2N)c(C)c1 | -3 | . | 1 | 5 | -6 | -7 | -3 | i |
| COCCCNC(=O)Cn1cnc2sc(C)c(S(=O)(=O)N3CCN(c4ccccc4OC)CC3)c2c1=O | 13 | -15 | 0 | -1 | -13 | 0 | -19 | i |
